# From PubChem BioAssay
# MARV entry inh: qHTS for inhibitors of binding or entry into cells for Marburg Virus. Marburg virus pseudotyped entry inhibition, cell reporter; control for the full effect not named in the record; about a third of the inactives were read at about 46 µM. Potency, µM (top dose mostly 37.8 µM), for the others: at the highest dose activity change, negative = inhibition, actives largely listed as inhibitors. 300,000 compounds, 1.8% hits. AID 540276, 2011; active = well fitted inhibition curve with a large enough effect; inconclusive = small, poorly fitted or top-dose-only effect, or effect the other way; inactive = flat fitted curve, though single readings scatter; tested in HEK293 cells; about a fifth of its hits are not listed in these tables; note: % is set by controls: 0 for no effect and ±100 for the full control effect; luciferase read-out
# 2A StopGo: High Throughput Screening for Foot and Mouth Disease Virus Antivirals. human cells with a luciferase reporter of 2A StopGo recoding; control for the full effect not named in the record. Potency, µM (top dose mostly 57.9 µM), inactives show top-dose signal change, negative = less light. 410,000 compounds, 1.2% hits; active = well fitted falling curve with a large enough effect; inconclusive = small, poorly fitted or top-dose-only effect; inactive = no such curve, though single readings can be large or run the other way; tested in HEK293T cells; note: % is set by controls: 0 for no effect and ±100 for the full control effect; nearly all actives have a fitted effect of over 45% in size; luciferase light after 4 h
# RE007 growth inh: qHTS Assay for Inhibitors of the HIV-1 protein Vpr; Potency, µM (series often up to 92.2 µM), for the others: top-dose activity change, negative = less growth; AID 651644, 2012; S. pombe RE007 Vpr strain, BacTiter-Glo ATP luminescence, 24 h; control for the full effect not named in the record; 360,000 compounds, 0.21% hits; active = well fitted falling curve with a large enough effect; inconclusive = small, poorly fitted or top-dose-only effect; inactive = no such curve, though single readings can be large or run the other way;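 note: % is set by controls: 0 for no effect and ±100 for the full control effect; nearly all actives have a fitted effect of over 50% in size; the assay follows cell death caused by Vpr and the record does not say whether a fall means rescue or toxicity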
#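 Fission yeast strain RE007, carrying one chromosomally integrated HIV-1 vpr copy, was seeded at OD 0.01 in PMG+AL medium with 23 nL pinned compound. After 24 h at 30 °C and 99% humidity, viability was read by BacTiter-Glo luminescence.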
# NS1 inh: qHTS Assay for Inhibitors of Influenza NS1 Protein Function. Potency, µM (top dose mostly 46.1 µM), for the others: top-dose activity, positive = more growth. AID 2326, 2010. 270,000 compounds, 0.4% hits. S. cerevisiae slowed by influenza A NS1, growth recovery by OD600; active means well fitted rising curve with a large enough effect; inconclusive means small, poorly fitted or top-dose-only effect; inactive means no such curve, though single readings can be large or run the other way; note: nearly all actives have a fitted effect of over 50% in size
#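 Recovery from NS1-induced slow growth read by OD600 in budding yeast switched to galactose assay medium (pH 6.0, -URA) at 1:100 dilution. Compound 23 nl per well; the matching strain lacking NS1 serves as control.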
# Lassa entry inh: qHTS for Inhibitors of binding or entry into cells for Lassa Virus; Lassa virus pseudotype entry inhibition, cell reporter; control for the full effect not named in the record; Potency, µM (titrated, usually from 37.9 µM), for inactives: at the highest dose activity change, negative = inhibition, hits mostly inhibitors; 300,000 compounds, 1.2% hits; AID 540256, 2011; active means well fitted inhibition curve with a large enough effect; inconclusive means small, poorly fitted or top-dose-only effect, or effect the other way; inactive means flat fitted curve, though single readings scatter; tested in HEK293 cells; note: % is set by controls: 0 for no effect and ±100 for the full control effect; nearly all actives have a fitted effect of over 50% in size; luciferase read-out
# Cruzain inh Det: qHTS Assay for Promiscuous and Specific Inhibitors of Cruzain (with detergent); AID 1478, 2009; Cruzipain (Trypanosoma cruzi), P25779; purified cruzain, Z-FR-AMC fluorescence, 0.01% Triton; Potency, µM, for inactives: max response, negative = inhibition, hits mostly inhibitors; 200,000 compounds, 0.43% hits;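 note: plate controls were neutral wells for no effect and buffer without enzyme for full effect; nearly all actives have a fitted effect of over 40% in size; top concentration of the series not given in the record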
# Target sequence (P25779 123-467 limits assumed): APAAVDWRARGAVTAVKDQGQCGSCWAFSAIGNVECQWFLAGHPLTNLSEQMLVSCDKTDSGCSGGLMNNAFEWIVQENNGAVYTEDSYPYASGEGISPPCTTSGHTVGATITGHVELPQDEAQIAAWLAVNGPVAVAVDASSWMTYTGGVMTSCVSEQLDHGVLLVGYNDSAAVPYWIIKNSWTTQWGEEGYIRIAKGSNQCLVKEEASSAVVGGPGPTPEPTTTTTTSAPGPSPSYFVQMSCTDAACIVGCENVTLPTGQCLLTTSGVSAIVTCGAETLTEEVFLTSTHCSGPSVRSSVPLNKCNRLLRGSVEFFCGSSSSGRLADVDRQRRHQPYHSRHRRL
#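 Compounds were screened in titration against cruzain (1.5 nM) with 0.01% Triton X-100 to counter colloidal aggregation. Activity was the AMC fluorescence increase over 60 s after adding 2 uM Z-FR-AMC at pH 5.5.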
# Cruzain noTriton: qHTS Assay for Promiscuous and Specific Inhibitors of Cruzain (without detergent) | Cruzipain (Trypanosoma cruzi), P25779 | purified cruzain, Z-FR-AMC fluorescence, no detergent | Potency, µM, inactives show max response, negative = inhibition, usual class: inhibitors | 200,000 compounds, 2.3% hits | AID 1476, 2009;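 note: plate controls were enzyme without inhibitor for no effect and buffer without enzyme for full effect; nearly all actives have a fitted effect of over 40% in size; top concentration of the series not given in the record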
#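 Detergent-free condition (0.00005% Triton X-100) in acetate buffer pH 5.5 with DTT. 1.5 nM enzyme and compound were pre-mixed 15 min, then 2 uM Z-FR-AMC substrate added; reaction progress from fluorescence change between first and third reads (60 s).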
# SARS PLpro yeast: qHTS of Yeast-based Assay for SARS-CoV PLP; S. cerevisiae expressing SARS-CoV PLpro, growth rescue; control for the full effect not named in the record; Potency, µM (doses to about 32.9 µM), without a hit: top-dose activity, positive = growth rescue; 330,000 compounds, 0.19% hits; active means well fitted rising curve with a large enough effect; inconclusive means small, poorly fitted or top-dose-only effect; inactive means no such curve, though single readings can be large or run the other way; note: 0% is about no effect; nearly all actives have a fitted effect of over 55% in size; growth read by luminescence after 48 h
# * marks the source's active call; other numbers are inactive results; u = inconclusive; x = no result given; [ ] = remark or other dose. Unless noted, calls come from the whole dose curve; as a rule, active = well fitted curve in the direction sought with a large enough effect; inconclusive = small, poorly fitted or top-dose-only effect, or another doubt; inactive = no such curve, though single readings can be large; an effect the other way counts as inactive or inconclusive. Potency is the fitted concentration of half-maximal effect.
# Keys – A = MARV entry inh; B = 2A StopGo; C = RE007 growth inh; D = NS1 inh; E = Lassa entry inh; F = Cruzain inh Det; G = Cruzain noTriton; H = SARS PLpro yeast
> CCOc1cc(/C=C2/NC(=O)N(CC(=O)Nc3cccc(C)c3)C2=O)ccc1OC
  A: u; B: -22.6%; C: -19.9%; D: 14.1%; E: u; F: 4.0%; G: -28.8%; H: 8.5%

> CCOc1ccc(/C=C2\C(=O)c3ccccc3OC2c2ccccc2)cc1 (stereo not given)
  A: -9.3%; B: 16.9%; C: 7.2%; D: 1.2%; E: u; F: -0.4%; G: u; H: -25.6%

> C=CCOc1c(Cl)cc(CNCCC)cc1Cl
  A: -13.7%; B: 15.8%; C: 13.5%; D: -6.4%; E: 9.6%; F: 4.8%; G: 5.9%; H: -7.7%

> O=C(NC12CC3CC(CC(C3)C1)C2)c1cccc([N+](=O)[O-])c1
  A: x; B: -23.3%; C: 0.7%; D: 4.2%; E: x; F: x; G: x; H: 0.9%

> CCOC(=O)c1cccc(NC(=O)Nc2cc(OC)ccc2OC)c1
  A: u; B: u; C: -11.4%; D: -38.5%; E: 16.4µM*; F: 1.6%; G: 1.8%; H: -3.1%

> CCCCN(Cc1ccccc1)C(=O)C1CCC(=O)N(CCc2ccccn2)C1 (stereo not given)
  A: x; B: -12.8%; C: 8.2%; D: -1.9%; E: x; F: x; G: x; H: 3.5%

> CCCc1cc(C(=O)Nc2nccs2)cs1
  A: u; B: 8.6%; C: -14.0%; D: -30.1%; E: 43.4%[14.3 µM]; F: 0.8%; G: -1.0%; H: -23.8%

> CC1(C)C(=O)C=CC(=O)C(C)(C)C(=O)C=CC(=O)C(C)(C)C2=CC=C(O2)C(C)(C)C(=O)C=CC1=O
  A: u; B: 7.94µM*; C: -0.5%; D: x; E: -19.4%; F: x; G: x; H: x

> Cc1ccc(S(=O)(=O)C2(S(=O)(=O)c3ccc(C)cc3)CCCC2)cc1
  A: 3.98µM*; B: -6.6%; C: 9.9%; D: -19.1%; E: u; F: -1.6%; G: -17.3%; H: -5.1%

> CCOC(=O)CSc1nc2sc3c(c2c(=O)[nH]1)CCCC3
  A: 10.4%; B: 2.4%; C: -13.6%; D: -2.7%; E: -26.3%; F: 0.9%; G: -0.3%; H: 2.2%

> CCC(C)NC(=O)Cn1cc(S(=O)(=O)N2CCN(c3ccccc3F)CC2)c2ccccc2c1=O (stereo not given)
  A: -20.1%[46.1 µM]; B: -7.2%; C: -21.5%; D: -26.8%; E: u; F: x; G: x; H: -0.1%

> C[n+]1ccccc1/C=C/c1ccccc1Cl
  A: -2.4%[46.1 µM]; B: -6.1%; C: -15.4%; D: 26.2%; E: 2.3%[46.1 µM]; F: x; G: x; H: -2.7%

> COc1ccc2nc(NCCCNC(=O)c3cc(OC)c(OC)c(OC)c3)c(C#N)cc2c1
  A: u; B: -9.8%; C: 8.8%; D: -8.3%; E: -26.9%; F: -2.4%; G: u; H: 0.0%

> CC(C)OCCCNC(=O)CNC(=O)c1ccc(Cl)c(Cl)c1
  A: -10.9%[46.1 µM]; B: 6.5%; C: -21.7%; D: x; E: x; F: x; G: x; H: -3.4%

> Brc1ccc(N=C(c2ccccc2)c2ccncc2)cc1
  A: u; B: -11.5%; C: -16.2%; D: -1.8%; E: 6.1%; F: -1.3%; G: -4.9%; H: 11.0%

> CCN1CCN(c2ccc([N+](=O)[O-])cc2C#N)CC1
  A: 24.3%[46.1 µM]; B: -16.1%; C: 7.8%; D: -2.1%; E: 24.9%[46.1 µM]; F: x; G: x; H: 1.2%

> O=C(NCc1ccccc1)c1cccn1-c1nnc(N2CCCC2)s1
  A: x; B: 2.0%; C: x; D: x; E: 4.3%[46.1 µM]; F: 0.3%; G: -1.8%; H: x

> CCCCCn1c(N2CCN(c3cccc(Cl)c3)CC2)nc2c1c(=O)[nH]c(=O)n2C
  A: -15.1%; B: u; C: 17.8%; D: -50.8%; E: u; F: -12.9%; G: u; H: -0.1%

> COc1ccccc1N1CCN(C(=O)COc2cc(C)ccc2C)CC1
  A: u; B: -24.4%; C: -12.1%; D: -6.7%; E: u; F: -7.2%; G: u; H: -7.9%

> CC(C)(C)c1ccc(OCc2ccc(C(=O)NN)o2)cc1
  A: x; B: 29.2%; C: 7.4%; D: 3.5%; E: x; F: x; G: x; H: -1.5%

# Rewritten with values under each structure: 11 of the compounds above
# Results follow in this order: MARV entry inh, 2A StopGo, RE007 growth inh, NS1 inh, Lassa entry inh, Cruzain inh Det, Cruzain noTriton, SARS PLpro yeast
CCOC(=O)CSc1nc2sc3c(c2c(=O)[nH]1)CCCC3
  10.4%, 2.4%, -13.6%, -2.7%, -26.3%, 0.9%, -0.3%, 2.2%
CCC(C)NC(=O)Cn1cc(S(=O)(=O)N2CCN(c3ccccc3F)CC2)c2ccccc2c1=O (stereo not given)
  -20.1%[46.1 µM], -7.2%, -21.5%, -26.8%, u, x, x, -0.1%
C[n+]1ccccc1/C=C/c1ccccc1Cl
  -2.4%[46.1 µM], -6.1%, -15.4%, 26.2%, 2.3%[46.1 µM], x, x, -2.7%
COc1ccc2nc(NCCCNC(=O)c3cc(OC)c(OC)c(OC)c3)c(C#N)cc2c1
  u, -9.8%, 8.8%, -8.3%, -26.9%, -2.4%, u, 0.0%
CC(C)OCCCNC(=O)CNC(=O)c1ccc(Cl)c(Cl)c1
  -10.9%[46.1 µM], 6.5%, -21.7%, x, x, x, x, -3.4%
Brc1ccc(N=C(c2ccccc2)c2ccncc2)cc1
  u, -11.5%, -16.2%, -1.8%, 6.1%, -1.3%, -4.9%, 11.0%
CCN1CCN(c2ccc([N+](=O)[O-])cc2C#N)CC1
  24.3%[46.1 µM], -16.1%, 7.8%, -2.1%, 24.9%[46.1 µM], x, x, 1.2%
O=C(NCc1ccccc1)c1cccn1-c1nnc(N2CCCC2)s1
  x, 2.0%, x, x, 4.3%[46.1 µM], 0.3%, -1.8%, x
CCCCCn1c(N2CCN(c3cccc(Cl)c3)CC2)nc2c1c(=O)[nH]c(=O)n2C
  -15.1%, u, 17.8%, -50.8%, u, -12.9%, u, -0.1%
COc1ccccc1N1CCN(C(=O)COc2cc(C)ccc2C)CC1
  u, -24.4%, -12.1%, -6.7%, u, -7.2%, u, -7.9%
CC(C)(C)c1ccc(OCc2ccc(C(=O)NN)o2)cc1
  x, 29.2%, 7.4%, 3.5%, x, x, x, -1.5%

# Next structures.
# Keys – A = MARV entry inh; B = 2A StopGo; C = RE007 growth inh; D = NS1 inh; E = Lassa entry inh; F = Cruzain inh Det; G = Cruzain noTriton; H = SARS PLpro yeast
> CCOC(=O)c1cc(-c2ccncc2)nc2c1c(C)nn2-c1ccccn1
  A: u; B: u; C: -10.8%; D: -56.0%; E: u; F: -5.5%; G: u; H: 0.2%

> O=S(=O)(c1cccc(Cl)c1)n1c(/C=C/c2ccccc2Cl)nc2ccccc21
  A: x; B: -81.0%; C: x; D: x; E: u; F: -9.7%; G: 7.94µM*; H: x

> O=C(O)CCC(=O)NCc1cn(-c2ccccc2)nc1-c1cccc(Br)c1
  A: 12.7%; B: -18.9%; C: 3.2%; D: 20.7%; E: 19.6%; F: -4.8%; G: u; H: 0.7%

> COc1ccc(CCNC(=O)C(C(=O)c2ccc(F)cc2)n2ccccc2=O)cc1OC (stereo not given)
  A: -2.3%; B: -11.2%; C: -2.7%; D: u; E: 0.3%; F: -4.8%; G: 6.8%; H: -0.8%

> Cc1cc(NC(=O)COC(=O)CCC(=O)c2ccc(F)cc2)no1
  A: 2.8%[46.1 µM]; B: -3.4%; C: -2.8%; D: -11.2%; E: 0.1%; F: -0.4%; G: 2.9%; H: 0.3%

> C/C(CC1CC2=C(CC1(C)C)C(C)(C)CCC2)=N\NC(N)=S (stereo not given)
  A: u; B: u; C: -13.5%; D: -70.8%; E: u; F: -14.1%; G: -5.8%; H: 11.2µM*

> Cc1nn(CCCC(=O)NCc2ccccc2)c(=O)c2cc3sccc3n12
  A: u; B: -6.8%; C: x; D: x; E: x; F: 0.8%; G: 6.7%; H: x

> COc1cccc(/C=N\NS(=O)(=O)c2ccccc2)c1OC
  A: x; B: 19.2%; C: 1.4%; D: 7.8%; E: x; F: x; G: x; H: -8.7%

> O=S(=O)(c1ccc(Br)s1)N1CCN(c2ccccc2)CC1
  A: -21.9%; B: -18.7%; C: 12.7%; D: -48.3%; E: -7.3%; F: -2.5%; G: -1.2%; H: 1.3%

> COc1ccc(NC(=O)C2=CC(c3ccc4c(c3)OCO4)=NS(=O)(=O)N2C)cc1
  A: 1.6%[46.1 µM]; B: -11.7%; C: x; D: x; E: -0.5%[46.1 µM]; F: -3.6%; G: u; H: x

> COc1ccc2c(c1)CC/C2=N\NC(=O)c1ccccc1
  A: u; B: 45.9%[activator]; C: 8.3%; D: 2.1%; E: 21.2%; F: -5.9%; G: 2.0%; H: -8.5%

> COc1ccccc1NC(=O)Cn1ncc2c1-c1ccccc1OC2
  A: x; B: -16.7%; C: 2.3%; D: 0.0%; E: x; F: -4.6%; G: -2.7%; H: 4.3%

> Cc1occc1C(=O)N1CCCC(N2CCN(c3cccc(C(F)(F)F)c3)CC2)C1 (stereo not given)
  A: x; B: -9.1%; C: -11.1%; D: -14.0%; E: x; F: x; G: x; H: -6.9%
